# RE007 growth inh: qHTS Assay for Inhibitors of the HIV-1 protein Vpr. S. pombe RE007 Vpr strain, BacTiter-Glo ATP luminescence, 24 h; control for the full effect not named in the record. Potency, µM (series often up to 92.2 µM), inactives show at the highest dose activity change, negative = less growth. actives 0.21% (n = 360,000); active = well fitted falling curve with a large enough effect; inconclusive = small, poorly fitted or top-dose-only effect; inactive = no such curve, though single readings can be large or run the other way;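 further: nearly all actives have a fitted effect of over 50% in size; the assay follows cell death caused by Vpr and the record does not say whether a fall means rescue or toxicity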
#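 Fission yeast strain RE007, carrying one chromosomally integrated HIV-1 vpr copy, was seeded at OD 0.01 in PMG+AL medium with 23 nL pinned compound. After 24 h at 30 °C and 99% humidity, viability was read by BacTiter-Glo luminescence.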
# StopGo reporter: High Throughput Screening for Foot and Mouth Disease Virus Antivirals | Potency, µM (doses to about 57.9 µM), for inactives: at the highest dose signal change, negative = less light | human cells with a luciferase reporter of 2A StopGo recoding; control for the full effect not named in the record | AID 1159524, 2015 | actives 1.2% (n = 410,000); active = well fitted falling curve with a large enough effect; inconclusive = small, poorly fitted or top-dose-only effect; inactive = no such curve, though single readings can be large or run the other way; tested in HEK293T cells; further: nearly all actives have a fitted effect of over 45% in size; luciferase light after 4 h
# Starred values were filed as active, the others as inactive; u = inconclusive; [ ] = another dose, or the depositor's remark. On the % scale 0 is the no-effect control and ±100 the full control effect; potency means the concentration at half of the fitted maximal effect. A portion of the library; count on the stated rates, not on these rows.
# Start of the listing, in advance (2 entries):
# Every second line gives: RE007 growth inh	StopGo reporter
CC1CCN(c2ccc3c(c2)S(=O)(=O)c2cc(C(=O)O)ccc2C3=O)CC1
 : 8.3%	42.4%[activator]
O=C(C[n+]1ccccc1)Nc1ccccc1
 : 7.1%	10.0%

# All compounds of this part, from the start:
# Every second line gives: RE007 growth inh	StopGo reporter
CC1CCN(c2ccc3c(c2)S(=O)(=O)c2cc(C(=O)O)ccc2C3=O)CC1
 : 8.3%	42.4%[activator]
O=C(C[n+]1ccccc1)Nc1ccccc1
 : 7.1%	10.0%
Cc1cccc(S(=O)(=O)NC(=O)C2(C)CCN2C(=O)c2sccc2C)c1 (stereo not drawn)
 : 3.7%	1.6%
O=S1(=O)c2ccc(Br)cc2N2CC[C@H](C2)N1Cc1ccc(Cl)cc1
 : -5.1%	1.2%
CCCCCCSc1ccc(-c2nc3ccc(C)cn3c2NCCCC)cc1OC
 : u	0.0%
CCCCOc1ccc(C(=O)NCC(=O)OCCCOC(=O)CNC(=O)c2ccc(OCCCC)cc2)cc1
 : 10.4%	u
CCOC(=O)N(C)C[C@@H]1OCc2cn(nn2)CCCC(=O)N([C@@H](C)CO)C[C@H]1C
 : 6.4%	-9.4%
N#Cc1c(C(F)(F)F)cc(-c2cccs2)nc1SC(C(=O)O)c1ccccc1 (stereo not drawn)
 : -3.0%	-12.9%
CC1(C(=O)NS(=O)(=O)Cc2cccc(Cl)c2)CCN1C(=O)C1(c2ccc(Cl)cc2)CC1 (stereo not drawn)
 : -4.3%	7.1%
CC1(C(=O)NS(=O)(=O)c2cccs2)CCN1C(=O)c1cccc(F)c1 (stereo not drawn)
 : -7.7%	-14.6%
CC(C)CC1C(=O)N(Cc2cn(CCC3OCCCO3)nn2)CCS(=O)(=O)N1Cc1ccc(-c2ccncc2)cc1 (stereo not drawn)
 : 2.2%	u
COc1ccc(-c2oc3ccc(N4CCOCC4)cc3c2C#CCO)cc1
 : -14.1%	28.2µM*
CCCCNC(=O)c1nc(C2CCN(S(=O)(=O)c3ccccc3C(F)(F)F)CC2)oc1-c1cccc(C(F)(F)F)c1
 : 35.5%	-12.3%
CC(C)C[C@H]1COc2cccc(N3CCSCC3)c2S(=O)(=O)N1
 : -5.2%	-17.7%
O=C(Nc1ccc2c(c1)OCO2)c1cc(C2CCCCN2C(=O)CCc2ccccc2)on1 (stereo not drawn)
 : 5.3%	-6.2%
CN1CCCC(CC2c3ccccc3Sc3ccccc32)C1 (stereo not drawn)
 : 5.9%[18.4 µM]	39.8µM*
CCOC(=O)C1CCN(C(=O)c2[nH]c(C(F)(F)F)nc2-c2ccccc2)CC1
 : 0.9%	-3.9%
O=C1NC[C@@H](CCCCN2C[C@H](Cc3ccc(O)cc3)N(CCC3CCCCC3)C(=O)C2=O)N(CCC2CCCCC2)C1=O
 : 22.8%	15.8%
O=C(NCc1ccc(F)cc1)c1cc(C2CCCCN2C(=O)C2CCCCC2)on1 (stereo not drawn)
 : 4.1%	-8.4%
Cc1cccc(OCC(O)CN2CC2)c1 (stereo not drawn)
 : -18.8%	-1.5%
C[C@@H]1CN([C@@H](C)CO)C(=O)CCCn2nncc2CO[C@H]1CN(C)S(=O)(=O)c1ccccc1F
 : 4.2%	-5.8%
CN1C(CC(O)c2ccccc2)CCCC1CC(O)c1ccccc1 (stereo not drawn)
 : 0.4%[18.4 µM]	-16.0%
FC(F)c1nc2nc(Cl)c(Cl)nc2[nH]1
 : -2.9%	-23.1%
CC1(C(=O)NS(=O)(=O)c2ccc(C#N)cc2)CCN1C(=O)c1cccc(F)c1 (stereo not drawn)
 : 2.3%	2.3%
CC(C)C[C@H]1CNC(=O)C(=O)N1CC1CCN(CCC(C)c2ccccc2)CC1 (stereo partly drawn)
 : -23.5%	-7.4%
CCCCC[C@@H](C)N1C[C@H](COCc2ccccc2)Oc2cc(N3CCC[C@@H]3CO)ccc2S1(=O)=O
 : 4.6%	-5.8%
CC[C@H](C)/C=C(C)/C=C/C1=CC2=C(Cl)C(=O)[C@@](C)(OC(C)=O)C(=O)C2=CO1
 : u	-22.7%
COc1ccc(C(C)(O)c2nc(-c3ccc(OC)nc3)cs2)cc1 (stereo not drawn)
 : 4.4%	-11.9%
COc1ccc(C2=Nc3ccccc3N(C(=O)c3ccncc3)C2C(=O)NC(C)C)cc1 (stereo not drawn)
 : -23.5%	1.5%
Cc1ccc(S(=O)(=O)C[C@@H]2OC3CCCCC3N2S(=O)(=O)c2ccc(C)cc2)cc1 (stereo partly drawn)
 : -13.8%	10.9%
CC(C)NC(=O)OC1CC2CC1[C@H]1CCCCN1C2=O (stereo partly drawn)
 : -3.6%	-18.1%
CCc1ccccc1Oc1nc(NC(C)C)nc2ccsc12
 : -10.6%[18.4 µM]	-11.2%
CCc1nc2c(OCc3ccc(C(F)(F)F)cc3)cccn2c1N(C)C(=O)c1ccncc1
 : 1.5%[18.4 µM]	-25.8%
Cc1ccc(Cn2c(CCNc3nc(-c4ccc(C)cc4)cs3)nc3cc(C(=O)NCCCO)ccc32)cc1
 : 4.9%	-14.1%
COC(=O)c1cccc(NC(=O)/C(=C\c2ccco2)NC(=O)c2ccco2)c1
 : 4.2%	-6.8%
Cn1c(NCc2ccc3occc3c2)nc2cc(-c3cccc(C(F)(F)F)c3)sc2c1=O
 : 14.2%	u
CCCCC[C@H]1CCCCC[C@@H](O)C[C@H](O)[C@H](O)/C=C/C(=O)O1
 : -11.3%	u
Cc1ccc(NS(=O)(=O)c2ccc(-n3cccn3)cc2)c(Cl)c1
 : -8.1%	-10.3%
CCc1nc2ccc(C(=O)Nc3ccc(OC)c(OC)c3)cn2c1N(CC)CCOC
 : -25.0%[18.4 µM]	-8.1%
O=C([C@H]1O[C@@H](n2ccc(=O)[nH]c2=O)[C@H](O)[C@@H]1O)N1CCSC1
 : -7.2%	-10.0%
CCCCC[C@H](C)N1C[C@@H](COCc2ccccc2)Oc2cc(N3CC[C@@H](O)C3)ccc2S1(=O)=O
 : 13.3%	-6.8%
OC(c1ccc(F)c(F)c1)c1nc(-c2cccc(C(F)(F)F)c2)cs1 (stereo not drawn)
 : u	22.7%
COc1ccc(-c2ccc3c(c2)CN(C(=O)CCc2ccccc2)Cc2cnnn2-3)cc1
 : 0.9%	-20.0%
NC(=O)c1ccc(-c2ccc(N3C(c4ccsc4)=Cc4ccc(F)cc4C3CC(=O)c3ccco3)cc2)cc1 (stereo not drawn)
 : 9.1%	-7.6%
Nc1ccc(CC(N)c2csc(Nc3ncccn3)n2)cc1 (stereo not drawn)
 : 0.4%	3.4%
CC(C)(C)OC(=O)N1CCc2onc(-c3ccccc3[N+](=O)[O-])c2C1=O
 : -0.4%	-8.3%
CC1(C(=O)NS(C)(=O)=O)CCN1C(=O)CC(c1ccccc1)c1ccccc1 (stereo not drawn)
 : 6.5%[18.4 µM]	-9.0%
CC(C)Oc1ccc(F)cc1-c1cc(C(=O)NCc2cccs2)[nH]n1
 : 13.5%	-4.5%
COC(=O)[C@@H](NCc1ccc(OC)c(B(O)O)c1)C(C)C
 : -10.0%	-8.9%
COc1ccc(-c2csc(C(O)c3ccccc3)n2)cn1 (stereo not drawn)
 : 3.8%	52.1%[activator]

# Next section:
# Every second line gives: RE007 growth inh	StopGo reporter
COc1ccc(-c2csc(C(O)c3ccccc3)n2)cc1 (stereo not drawn)
 : -7.1%	43.8%[activator]
COc1ccc(CC(=O)N2CCN(C(=O)Cc3ccc(OC)c(OC)c3)CC2)cc1OC
 : -0.3%	-22.4%
CCc1ccccc1NC(=O)C1CCN(S(=O)(=O)c2ccc(N3CCCC3=O)cc2)CC1
 : -9.5%	-27.3%
CCc1nc2ccc(C(=O)NCCCn3ccnc3)cn2c1N(C)Cc1nccs1
 : u	1.1%
CSc1ccc(CNC(=O)C2(C)CCCN(C(C)C)C2)cc1 (stereo not drawn)
 : -10.5%	-13.3%
CC(C)Oc1cc(F)ccc1-c1cc(C(=O)NCc2cccs2)[nH]n1
 : 14.9%	3.2%
CC1(C(=O)Nc2ccc3nc[nH]c3c2)CCN1C(=O)C/C=C/c1ccccc1 (stereo not drawn)
 : -6.1%	-19.2%
COc1ccc(C(N)c2csc(Nc3ccc(S(C)(=O)=O)cc3)n2)cc1 (stereo not drawn)
 : -20.9%[18.4 µM]	-14.3%
CCOC(=O)C1(C)CCN1C(=O)c1ccccc1C (stereo not drawn)
 : 6.2%[18.4 µM]	-2.4%
CC(C)NC(=O)c1csc(COCCO)n1
 : 10.1%	-14.4%
COC(=O)[C@@H](Cc1c[nH]c2ccccc12)NCc1ccc(B(O)O)cc1
 : u	-16.4%
COc1ccc(NC(=O)C2(C)Cc3c(-c4ccccc4)ccnc3O2)cn1 (stereo not drawn)
 : -9.8%	-8.0%
Cc1cccc(S(=O)(=O)NC(=O)C2(C)CCN2C(=O)Cc2ccccc2)c1 (stereo not drawn)
 : 15.7%	2.6%
CC(C)Nc1nc(-c2ccccc2CO)c2sccc2n1
 : 10.6%	1.6%
Cc1ccc(OCC(=O)Nc2cccc(S(=O)(=O)N3CCCC3)c2)cc1C
 : -16.2%	8.7%
CC(C)(C)c1ccc(C(=O)N2CCC2(C)C(=O)Nc2cnc3ccccc3c2)cc1 (stereo not drawn)
 : 7.0%	u
COC(=O)[C@@]12C[C@@H](CC(=O)N3CCOCC3)C(=O)N(Cc3ccco3)C1=CCC(C)(C)C2
 : u	2.9%
COc1ccc(S(=O)(=O)N2CCCCC2c2cc(C(=O)Nc3ccccc3Cl)no2)cc1 (stereo not drawn)
 : 5.5%	-25.1%
CSc1ccc(Cn2c(C)c(C(=O)NCc3ccco3)sc2=O)cc1
 : 7.7%[18.4 µM]	0.5%
CC[C@H](C)[C@@H](CO)NC(=O)[C@H]1O[C@@H](n2ccc(N)nc2=O)[C@H](O)[C@@H]1O
 : -7.6%	-22.4%
COCC(C)n1c(SCC(=O)Nc2cccnc2Cl)nc2ccccc2c1=O (stereo not drawn)
 : 8.6%	2.9%
CC(C)C(C(=O)O)N1C(=O)C2C3CCC(C3)C2C1=O (stereo not drawn)
 : -7.3%	-2.3%
Nc1nc(N)c2cc(Sc3ccc(Cl)cc3)ccc2n1
 : 1.2%	-18.4%
COc1ccc([C@H]2CN(Cc3ccccc3)C(=O)[C@@H]2CC(=O)Nc2ccccc2)cc1
 : -20.6%	60.5%[activator]
C[C@@H]1CC[C@]2(O[C@H](CCO)C[C@@H](O)[C@@H]2O)O1
 : 13.5%	0.0%
CCc1nc2c(OCc3ccc(F)c(F)c3)cccn2c1N(C)C(=O)c1ccco1
 : 0.4%[18.4 µM]	-19.8%
COC(=O)CCCCCN1C(=O)NC(C2CC2)C(C(=O)OCc2ccccc2)=C1C (stereo not drawn)
 : 10.9%	-3.0%
O=C(CC[C@H]1O[C@@H](n2cnc3c(NC(=O)c4ccccc4)ncnc32)[C@H](O)[C@@H]1O)NCC(c1ccccc1)c1ccccc1
 : -5.1%	-10.3%
Cc1ccc(-c2nc3ccc(Br)cn3c2Cc2ccccc2C(F)(F)F)cc1
 : 6.1%	19.3%
O=C(Nc1cccc(Cc2ccccc2)c1)Nc1cccc2[nH]c([C@@H]3O[C@H](CO)[C@@H](O)[C@H](O)[C@H]3O)nc12
 : -6.2%[18.4 µM]	-10.9%
CCC(C)C(N)C1=NC(C(=O)N[C@@H](CC(C)C)C(=O)N[C@H](CCC(=O)[O-])C(=O)N[C@H](C(=O)N[C@H]2CCCCNC(=O)[C@H](CC(N)=O)NC(=O)[C@@H](CC(=O)[O-])NC(=O)[C@H](Cc3cnc[nH]3)NC(=O)[C@@H](Cc3ccccc3)NC(=O)[C@H]([C@@H](C)CC)NC(=O)[C@@H](CCCN)NC2=O)[C@@H](C)CC)CS1.[Zn+2] (stereo partly drawn)
 : 9.3%	16.1%
O=C1c2ccccc2C(c2nnnn2-c2ccc3ccccc3c2)N1C1CC1 (stereo not drawn)
 : 15.5%	-19.2%
NC(Cc1c[nH]c2ccccc12)C(=O)Nc1ccccc1 (stereo not drawn)
 : -19.0%	-1.0%
COc1ccc(CNC(=O)c2ccc(-c3cnn(C)c3)c3ccoc23)cc1OC
 : 3.8%	21.5%
Cc1cnc2ccc(F)cc2c1
 : 19.2%	-24.4%
C#CCN1C=CC(=O)[C@@H](OC(=O)NCCC)[C@H]1c1ccccc1Br
 : -9.4%	-2.4%
O=C(Nc1nnc([C@H]2C[C@H](O)[C@@H](CO)O2)s1)c1ccccc1F
 : 2.9%[18.4 µM]	-4.6%
CN(CCc1ccccc1)c1cc2c(c3c1ccn3C)C1CCC2O1 (stereo not drawn)
 : u	-28.0%
C[C@@H]1CN([C@@H](C)CO)C(=O)CCCn2cc(nn2)CO[C@H]1CN(C)S(=O)(=O)c1ccc(Cl)cc1
 : 11.8%	15.0%
COCCNc1nnc(SCC(=O)c2cc(C)n(C3CC3)c2C)s1
 : -8.6%	5.1%
OC[C@@H]1CN(Cc2ccc(-c3ccccc3)cc2)C[C@H](n2cnc3c(Nc4ccccc4)ncnc32)O1
 : u	31.6µM*
OC[C@@H]1CN(Cc2ccc(Cl)cc2)C[C@H](n2cnc3c(NC4CCCC4)ncnc32)O1
 : 5.7%	u
CC(=O)CC1c2cc(F)ccc2C=C(c2ccsc2)N1c1ccc(C#CC2(O)CCCCC2)cc1 (stereo not drawn)
 : -3.4%	0.0%
Cc1noc(C)c1NC(=O)N(C)C[C@@H]1OCc2cnnn2CCCC(=O)N([C@H](C)CO)C[C@@H]1C
 : 0.0%	-22.7%

# Compound activity deposited in PubChem by National Center for Advancing Translational Sciences (NCATS).
